FGF22 binding: binders of human FGF22 protein, primary screen, FGF22 synaptogenesis inhibitor project, biophysical, thermal shift, single point; Fibroblast growth factor 22 (Homo sapiens), Q9HCT0; recombinant FGF22 thermal shift, SYPRO orange fluorescence; percent of sucrose octasulfate shift, DMSO zero; calls only at 9.99 µM; 1.5% of 340,000 active; AID 651658, 2012;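 active means melting point raised past a set limit in the mean and every replicate; three in four hits are not shown here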
Target sequence (Q9HCT0 whole entry, looked up): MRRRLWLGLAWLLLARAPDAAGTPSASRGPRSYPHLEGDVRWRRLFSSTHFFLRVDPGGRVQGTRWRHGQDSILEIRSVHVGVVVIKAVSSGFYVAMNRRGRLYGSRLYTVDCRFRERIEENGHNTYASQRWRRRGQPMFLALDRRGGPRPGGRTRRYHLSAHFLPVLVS
MLL AF4-AF9 inh: inhibitors of AF4 peptide binding to AF9, primary screen, biochemical, AlphaScreen, biotin-AF4 peptide, FLAG-AF9, single point | AID 651704, 2012 | inhibition, % at 10 µM | 0.47% of 350,000 active | Protein AF-9 (Homo sapiens), P42568;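 active means every replicate reaching a set inhibition limit, whatever the replicate mean, cut at about 25% in these data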;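 further: 0% = plate neutral control median and 100% = total signal loss; the record names both 10 and 1 µM as test concentration; the first replicate is given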
Target sequence (P42568 whole entry, looked up): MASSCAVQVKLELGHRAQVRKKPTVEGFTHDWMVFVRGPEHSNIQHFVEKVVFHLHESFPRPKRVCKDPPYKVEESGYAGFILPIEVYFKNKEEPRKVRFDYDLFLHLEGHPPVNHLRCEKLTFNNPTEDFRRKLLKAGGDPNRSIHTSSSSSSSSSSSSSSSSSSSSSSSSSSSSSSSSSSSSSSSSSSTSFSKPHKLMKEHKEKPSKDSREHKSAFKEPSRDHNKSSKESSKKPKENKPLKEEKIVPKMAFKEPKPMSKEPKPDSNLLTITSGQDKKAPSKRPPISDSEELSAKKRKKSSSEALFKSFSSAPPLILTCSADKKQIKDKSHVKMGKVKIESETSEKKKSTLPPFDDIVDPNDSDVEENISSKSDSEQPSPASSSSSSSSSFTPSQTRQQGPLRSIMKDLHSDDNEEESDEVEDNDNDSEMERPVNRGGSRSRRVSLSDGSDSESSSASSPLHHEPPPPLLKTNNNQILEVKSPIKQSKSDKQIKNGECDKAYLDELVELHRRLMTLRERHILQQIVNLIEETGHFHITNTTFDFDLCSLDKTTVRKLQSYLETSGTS
An asterisk follows results filed as active; i = inactive.

SMILES	FGF22 binding	MLL AF4-AF9 inh
Cc1noc(C)c1S(=O)(=O)Nc1ccc2c(c1)C(=O)N([C@@H](C)CO)C[C@@H](C)[C@H](CN(C)S(=O)(=O)c1cn(C)cn1)O2	i	-1.1
Cc1noc(C)c1S(=O)(=O)Nc1cccc2c1O[C@@H](CN(C)Cc1ccc(C(=O)Nc3ccccc3N)cc1)[C@@H](C)CN([C@@H](C)CO)C2=O	i	-0.5
CNC[C@@H]1Oc2c(N)cccc2C(=O)N([C@H](C)CO)C[C@@H]1C	i	0.3
CN(C)CC(=O)N1CC2(C1)[C@@H](c1ccccc1)[C@@H](CO)N2Cc1cc(F)ccc1F	i	2.0
COCCNC(=O)C[C@@H]1C[C@@H]2c3cc(NC(=O)Nc4ccc(C(F)(F)F)cc4)ccc3O[C@@H]2[C@H](CO)O1	i	2.6
Cn1cnc(S(=O)(=O)N2CCCCN3[C@H](C2)[C@H](c2ccc(C#CC4CC4)cc2)[C@@H]3CO)c1	i	-1.9
CO[C@@H]1CN(C)C(=O)c2cc(NS(=O)(=O)c3cn(C)cn3)ccc2OC[C@@H](C)N(Cc2cccc(F)c2)C[C@@H]1C	i	0.1
CO[C@@H]1CN(C)C(=O)c2ccc(NC(=O)C3CCOCC3)cc2OC[C@@H](C)N(C(=O)c2ccccc2)C[C@H]1C	i	-1.6
COCC(=O)N1C[C@@H](C)[C@H](OC)CN(C)C(=O)c2ccc(NC(=O)c3ccc(F)cc3)cc2OC[C@@H]1C	i	-1.1
C[C@H](CO)N1C[C@H](C)[C@H](CN(C)C(=O)CN(C)C)Oc2ncc(C#Cc3cccnc3)cc2C1=O	i	-4.9
CO[C@@H]1CN(C)C(=O)c2ccc(NC(=O)Nc3ccccc3)cc2OC[C@@H](C)N(C(C)=O)C[C@H]1C	i	-0.8
C[C@H]1CN([C@@H](C)CO)S(=O)(=O)c2ccc(-c3cccnc3)cc2O[C@H]1CN(C)C(=O)NC1CCCCC1	i	-1.1
C[C@H]1CN([C@@H](C)CO)C(=O)c2cccc(NC(=O)c3ccc(-c4nccs4)cc3)c2O[C@@H]1CN(C)S(=O)(=O)c1cn(C)cn1	i	-0.9
C[C@@H]1CN([C@H](C)CO)C(=O)c2cc(C#Cc3ccc(F)cc3)cnc2O[C@@H]1CN(C)CC1CC1	i	3.4
C[C@@H]1CN([C@@H](C)CO)C(=O)c2cc(C#CC3CCCC3)cnc2O[C@@H]1CN(C)Cc1ccncc1	i	4.7
COc1ccccc1-c1cn(CC[C@@H]2CC[C@@H](NC(=O)Cc3ccccn3)[C@H](CO)O2)nn1	i	-1.9
C[C@@H]1CN([C@@H](C)CO)C(=O)c2cc(NC(=O)C3CCCCC3)ccc2O[C@H]1CN(C)C(=O)Nc1ccccc1	i	-12
CCCC(=O)Nc1ccc2c(c1)OC[C@@H](C)N(C(=O)c1cccnc1)C[C@H](C)[C@H](OC)CN(C)C2=O	i	-2.1
CN1c2ccc(-c3ccc(F)cc3)cc2[C@H]2[C@H](CCN2C(=O)Cc2ccccn2)[C@H]1CO	i	5.4
COCC(=O)N(C)C[C@@H]1Oc2ncc(-c3cccc(OC)c3)cc2C(=O)N([C@@H](C)CO)C[C@H]1C	i	-5.6
C[C@@H]1CN([C@@H](C)CO)C(=O)Cc2cc(NC(=O)C3CC3)ccc2O[C@@H]1CN(C)C(=O)Nc1cccc2ccccc12	i	-1.5
CO[C@@H]1CN(C)C(=O)c2cc(NC(C)=O)ccc2OC[C@H](C)N(C(=O)CN(C)C)C[C@@H]1C	i	0.7
C[C@@H]1CN([C@@H](C)CO)C(=O)c2cc(NC(=O)NC3CCCCC3)ccc2O[C@@H](C)CCCCO[C@@H]1CN(C)Cc1ccccc1	i	-2.0
COc1ccccc1NC(=O)N[C@@H]1CC[C@H](CCn2cc(C3(O)CCCC3)nn2)O[C@H]1CO	i	-0.1
C[C@H]1CN([C@@H](C)CO)C(=O)c2cc(-c3cncnc3)cnc2O[C@@H]1CN(C)C(=O)Cc1ccccn1	i	-1.7
COc1ccc(NC(=O)N(C)C[C@H]2Oc3ccc(NS(=O)(=O)c4ccc(Cl)cc4)cc3C(=O)N([C@@H](C)CO)C[C@@H]2C)cc1	i	-4.6
O=C(C[C@H]1C=C[C@H](NC(=O)C2CC2)[C@H](CO)O1)Nc1ccccc1	i	0.2
Cc1noc(C)c1NC(=O)N[C@@H]1CC[C@H](CCNC(=O)C2CC2)O[C@@H]1CO	i	-1.1
COC(=O)C[C@H]1CC[C@H]2[C@H](COc3ccc(NC(=O)c4ccccc4F)cc3C(=O)N2C)O1	i	-1.7
O=C(C[C@@H]1CC[C@@H](NC(=O)Nc2cc(F)ccc2F)[C@@H](CO)O1)NCc1ccc2c(c1)OCO2	i	-15
Cn1cnc(S(=O)(=O)N2C[C@H](O)COC[C@H]3O[C@@H](CC(=O)NCc4ccc(F)cc4)CC[C@@H]32)c1	i	-3.8
C[C@H]1CN([C@@H](C)CO)C(=O)Cc2cc(NC(=O)C3CCCCC3)ccc2O[C@H]1CN(C)C(=O)Nc1ccc(F)cc1	i	-2.3
O=C(N[C@H]1C=C[C@H](CC(=O)N2CCc3ccccc3C2)O[C@H]1CO)C1CCC1	i	-2.1
CCCC#Cc1cnc2c(c1)C(=O)N([C@@H](C)CO)C[C@@H](C)[C@H](CN(C)CCC)O2	i	7.0
COc1ccc2c3c([nH]c2c1)[C@@H](CO)N(S(=O)(=O)c1ccc(C)cc1)CC31CN(C(=O)Cc2cccnc2)C1	i	2.4
C[C@@H]1CN([C@H](C)CO)C(=O)c2c(c3ccccc3n2C)-c2ccccc2CO[C@@H]1CN(C)C(=O)N[C@H](C)c1ccccc1	i	2.2

A different layout for ten compounds above:
canonical_smiles | FGF22 binding | MLL AF4-AF9 inh
O=C(C[C@H]1C=C[C@H](NC(=O)C2CC2)[C@H](CO)O1)Nc1ccccc1 | i | 0.2
Cc1noc(C)c1NC(=O)N[C@@H]1CC[C@H](CCNC(=O)C2CC2)O[C@@H]1CO | i | -1.1
COC(=O)C[C@H]1CC[C@H]2[C@H](COc3ccc(NC(=O)c4ccccc4F)cc3C(=O)N2C)O1 | i | -1.7
O=C(C[C@@H]1CC[C@@H](NC(=O)Nc2cc(F)ccc2F)[C@@H](CO)O1)NCc1ccc2c(c1)OCO2 | i | -15
Cn1cnc(S(=O)(=O)N2C[C@H](O)COC[C@H]3O[C@@H](CC(=O)NCc4ccc(F)cc4)CC[C@@H]32)c1 | i | -3.8
C[C@H]1CN([C@@H](C)CO)C(=O)Cc2cc(NC(=O)C3CCCCC3)ccc2O[C@H]1CN(C)C(=O)Nc1ccc(F)cc1 | i | -2.3
O=C(N[C@H]1C=C[C@H](CC(=O)N2CCc3ccccc3C2)O[C@H]1CO)C1CCC1 | i | -2.1
CCCC#Cc1cnc2c(c1)C(=O)N([C@@H](C)CO)C[C@@H](C)[C@H](CN(C)CCC)O2 | i | 7.0
COc1ccc2c3c([nH]c2c1)[C@@H](CO)N(S(=O)(=O)c1ccc(C)cc1)CC31CN(C(=O)Cc2cccnc2)C1 | i | 2.4
C[C@@H]1CN([C@H](C)CO)C(=O)c2c(c3ccccc3n2C)-c2ccccc2CO[C@@H]1CN(C)C(=O)N[C@H](C)c1ccccc1 | i | 2.2

Next part
SMILES	FGF22 binding	MLL AF4-AF9 inh
O=C1NC(=O)C2C3C=CC(C12)C1C(=O)NC(=O)C31 (stereo not given)	i	9.4
C[C@H](CO)N1C[C@H](C)[C@H](CN(C)Cc2ccc(C(=O)O)cc2)OCCCC[C@H](C)Oc2ccc(NS(=O)(=O)c3cccs3)cc2C1=O	i	-3.4
COc1ccc2c3c(n(C)c2c1)[C@@H](CO)N(C(=O)Cc1ccccc1)CC31CN(C(=O)Cc2ccccc2)C1	i	-0.5
C[C@@H]1CN([C@@H](C)CO)S(=O)(=O)c2ccc(-c3cccnc3)cc2O[C@H]1CN(C)Cc1ccccn1	i	13
C[C@@H]1CN([C@@H](C)CO)C(=O)c2cccc(NC(=O)Nc3ccc4c(c3)OCO4)c2O[C@@H]1CN(C)S(=O)(=O)c1cccs1	i	4.5
C[C@H]1CN([C@@H](C)CO)C(=O)CCCn2cc(nn2)CO[C@@H]1CN(C)Cc1ccc2c(c1)OCCO2	i	-1.9
C[C@@H]1CN([C@H](C)CO)C(=O)c2cc(NC(=O)Nc3cccc4ccccc34)ccc2O[C@@H]1CN(C)C(=O)Nc1cccc2ccccc12	i	-1.4
CN(C)c1ccc2c(c1)[C@@H]1C[C@@H](CC(=O)NCc3ccncc3)O[C@H](CO)[C@@H]1O2	i	-2.0
C[C@@H]1CN([C@H](C)CO)C(=O)c2cc(NC(=O)CCCN(C)C)ccc2O[C@@H]1CN(C)Cc1ccc(Oc2ccccc2)cc1	i	18
CC(C)NC(=O)N(C)C[C@@H]1Oc2ccc(NS(=O)(=O)c3ccccc3)cc2C(=O)N([C@@H](C)CO)C[C@@H]1C	i	-2.6
C[C@@H]1CN([C@@H](C)CO)C(=O)c2cc(NC(=O)c3ccncc3)ccc2O[C@H]1CN(C)C(=O)Nc1cccc2ccccc12	i	-3.3
CNC[C@H]1Oc2ccc(NC(=O)NC3CCCCC3)cc2C(=O)N([C@H](C)CO)C[C@H]1C	i	-1.1
CC(=O)N[C@H]1CC[C@H](CC(=O)NCC2CCCCC2)O[C@@H]1CO	i	-2.1
COc1ccc(NC(=O)Nc2ccc3c(c2)[C@H]2C[C@H](CC(=O)NC4CCCCC4)O[C@@H](CO)[C@H]2O3)cc1	i	-1.8
C[C@H]1CN([C@@H](C)CO)C(=O)Cc2cc(NC(=O)Cc3cn(C)c4ccccc34)ccc2O[C@H]1CN(C)S(=O)(=O)c1cccs1	i	-1.2
C[C@H]1CN([C@@H](C)CO)C(=O)Cc2cc(NC(=O)c3ccncc3)ccc2O[C@@H]1CN(C)Cc1ccncc1	i	-4.3
CO[C@H]1CN(C)C(=O)c2cc(NC(C)=O)ccc2OC[C@@H](C)N(CCc2ccccc2)C[C@H]1C	i	5.7
CO[C@@H]1CN(C)C(=O)c2ccc(NC(=O)C3CCCCC3)cc2OC[C@H](C)N(Cc2cccnc2)C[C@H]1C	i	1.9
C[C@H](CO)N1C[C@H](C)[C@@H](CN(C)C(=O)C2CCOCC2)Oc2cc(-c3ccc(F)cc3)ccc2S1(=O)=O	i	-2.1
COc1ccc(NC(=O)N[C@H]2CC[C@H](CCNC(=O)CN3CCOCC3)O[C@H]2CO)cc1	i	-2.8
CCC(=O)N(C)C[C@H]1Oc2cc(Br)ccc2S(=O)(=O)N([C@H](C)CO)C[C@H]1C	i	-0.6
CCCN(C)C[C@H]1Oc2cc(C#C[C@@H](C)O)ccc2S(=O)(=O)N([C@H](C)CO)C[C@H]1C	i	-0.1
C[C@H](CO)N1C[C@H](C)[C@@H](CN(C)S(=O)(=O)c2ccc(Cl)cc2)Oc2c(NC(=O)c3ccncc3)cccc2C1=O	i	-2.1
COCC(=O)Nc1ccc2c(c1)C(=O)N(C)C[C@H](OC)[C@@H](C)CN(C(=O)C1CCCC1)[C@H](C)CO2	i	-1.9
CCCN1C[C@H](C)[C@H](OC)CN(C)C(=O)c2cc(NS(=O)(=O)CC)ccc2OC[C@H]1C	i	-1.7
C[C@H](CO)N1C[C@H](C)[C@H](CN(C)Cc2ccc(O)cc2)OCc2cn(nn2)CCCC1=O	i	-3.5
C[C@H](O)C#Cc1cnc2c(c1)C(=O)N([C@@H](C)CO)C[C@H](C)[C@H](CN(C)C(=O)Nc1ccc(F)cc1)O2	i	-2.7
C[C@@H]1CN([C@H](C)CO)S(=O)(=O)c2ccc(Br)cc2O[C@@H]1CN(C)CC1CC1	i	0.8
C[C@H](CO)N1C[C@H](C)[C@H](CN(C)Cc2ccccn2)Oc2cc(-c3cccnc3)ccc2S1(=O)=O	i	-3.4
C[C@@H]1CN([C@@H](C)CO)C(=O)Cc2cc(NC(=O)CCCCCC(=O)Nc3ccccc3N)ccc2O[C@H]1CN(C)Cc1ccc(Cl)c(Cl)c1	i	1.0
C[C@H]1CN([C@@H](C)CO)C(=O)c2c(c3ccccc3n2C)-c2ccccc2CO[C@@H]1CN(C)C(=O)c1ccccc1	i	-0.7
CCC(=O)Nc1ccc2c(c1)C(=O)N(C)C[C@@H](OC)[C@H](C)CN(C(=O)C1CC1)[C@@H](C)CO2	i	-1.4
O=C(C[C@H]1CC[C@H]2[C@@H](COC[C@H](O)CN2Cc2cc(F)ccc2F)O1)N1CCc2ccccc2C1	i	3.0
C[C@@H]1CN([C@@H](C)CO)C(=O)c2cc(C#CC(C)(C)O)cnc2O[C@@H]1CN(C)C(=O)CC1CC1	i	-5.6
C[C@@H]1CN([C@@H](C)CO)C(=O)c2cc(NS(C)(=O)=O)ccc2O[C@@H](C)CCCCO[C@@H]1CN(C)Cc1ccc(C(=O)O)cc1	i	-1.5
COc1ccc(CN(C)C[C@@H]2Oc3ccc(NC(=O)Nc4ccc5c(c4)OCO5)cc3C(=O)N([C@@H](C)CO)C[C@@H]2C)cc1	i	6.8
C[C@@H]1CN([C@H](C)CO)C(=O)Cc2cc(NS(=O)(=O)c3cccs3)ccc2O[C@H]1CN(C)C(=O)Nc1ccc(F)cc1	i	-0.3
CS(=O)(=O)Nc1ccc2c(c1)[C@H]1C[C@H](CC(=O)NCc3ccccc3)O[C@@H](CO)[C@H]1O2	i	-0.5
COc1ccc(CN(C)C[C@@H]2Oc3c(NS(=O)(=O)c4ccccc4)cccc3C(=O)N([C@H](C)CO)C[C@H]2C)cc1	i	-1.0
CCC(=O)N1C[C@H](C)[C@@H](OC)CN(C)C(=O)c2ccc(NC(=O)Nc3cccc(F)c3)cc2OC[C@H]1C	i	0.9
Cc1ccc(S(=O)(=O)N[C@H]2C=C[C@H](CC(=O)NCc3ccccc3F)O[C@H]2CO)cc1	i	2.2

The list is partial; count on the stated rates, not on these rows.
